# StopGo RLuc – lowers the Renilla signal of an FMDV 2A StopGo reporter; AID 1745857; HEK cells with a luciferase reporter of 2A StopGo recoding; 120,000 tested, 0.32% active; Potency, µM (top dose mostly 57.5 µM), without a hit: at the highest dose signal change, negative = less light; active means well fitted falling curve with a large enough effect; inconclusive means small, poorly fitted or top-dose-only effect; inactive means no such curve, though single readings can be large or run the other way; also: nearly all actives have a fitted effect of over 55% in size; overnight with compound
# StopGo FLuc – FMDV 2A StopGo reporter, firefly signal. HEK cells with a luciferase reporter of 2A StopGo recoding. Potency, µM (doses to about 57.5 µM), for inactives: at the top dose signal change, negative = less light. 120,000 tested, 0.23% active. AID 1745856; active = well fitted falling curve with a large enough effect; inconclusive = small, poorly fitted or top-dose-only effect; inactive = no such curve, though single readings can be large or run the other way; also: nearly all actives have a fitted effect of over 60% in size; overnight with compound
# Starred values were filed as active, the others as inactive; ? = inconclusive; [ ] = remark or other dose. % is scaled to controls: 0 for no effect and ±100 for the full control effect; potency is read from the fitted curve at half-maximal effect.
mol,StopGo RLuc,StopGo FLuc
CCOC(=O)C1=C(C)N=C2SCCC(=O)N2C1c1ccc(OCc2ccccc2)c(OC)c1 (configuration not stated),18%,-12%
Cc1ccccc1CCNC(=O)c1[nH]c2ccccc2c1Cl,7%,0%
Cc1ccc2cccc(NC(=O)c3cccc4c(Cl)cccc34)c2n1,-7%,0%
COc1ccccc1CNC(=O)Cn1c(=O)ccc2cc(S(=O)(=O)N3CCCC3)ccc21,-1%,-5%
CCOC(=O)c1ccc(N2C(=O)[C@@H]3C(Cc4ccc(O)cc4)NC4(C(=O)Nc5ccc(F)cc54)[C@@H]3C2=O)cc1 (some centres not stated),49%[activator],2%
COc1cc(C(=O)NCC(c2cccnc2)N2CCN(c3ccc(F)cc3)CC2)cc(OC)c1OC (configuration not stated),-16%,-16%
Cc1ccc(C)c(C(=O)Nc2ccc3[nH]c(C)cc3c2)c1,6%,65%[activator]
Cc1nn(C)c2ncc(NC(=O)CCc3ncc(-c4ccc(F)cc4F)o3)cc12,2%,22%
Cc1ccc(NC(=O)c2cc(=O)c3ccccc3o2)cc1,-3%,130%[activator]
O=C(NC1CCC(O)CC1)c1ccc2c(c1)-c1ccccc1C2 (configuration not stated),24%,0%
Cc1cccc(OCCSc2nnc(-c3cccs3)o2)c1,25%,34%[activator]
O=C(NC(C1CC1)C1CC1)c1cc(Cl)nc(Cl)c1,12%,-6%
Cc1ccc2nc(COc3ccccc3NC(=O)c3ccccc3F)cc(=O)n2c1,-10%,-23%
CC1(C)CC(NC(=O)c2cc(C3CC3)nc3ccccc23)CC(C)(C)N1,-10%,-11%
CCC1CCCCN1C(=O)COC(=O)c1cccc2c(=O)c(C)c(-c3ccccc3)oc12 (configuration not stated),22%,-4%
COc1ccc(Cl)cc1-n1nnc(-c2nsc(NC(=O)c3ccccc3Cl)n2)c1C,4%,42%[activator]
COc1ccccc1CCNC(=O)Cn1ccc2cc(S(=O)(=O)N3CCCCC3)ccc21,28µM*,-18%
Cc1ccc(C2=NC(C)(C)N=C2SCC(=O)Nc2ccc(F)c(Cl)c2)cc1,?,?
O=C(Nc1ccc2nc(SCc3ccccc3)sc2c1)c1ccccc1F,33%[activator],44%[activator]
Cc1nn(CC(O)c2cc(F)ccc2F)c(=O)c2ccccc12 (configuration not stated),21%,134%[activator]
CCOc1ccc(CCNC(=O)CSc2nnnn2-c2ccc(C)cc2C)cc1OCC,-7%,-9%
COc1ccc(-c2cn3nc(N4CCCC(C(=O)NCCc5cccs5)C4)sc3n2)cc1 (configuration not stated),?,16%
Cc1oc(-c2ccccc2)nc1C(=O)N1CCN(CC(=O)N2CCOCC2)CC1,-10%,7%
Cc1ccc(CSC2=Nc3ccccc3C3=NC(CCC(=O)N4CCN(c5ccccc5)CC4)C(=O)N23)cc1 (configuration not stated),220%[activator],104%[activator]
CCCc1nnc(NC(=O)c2cc(-c3ccncc3)nc3ccccc23)s1,-8%,-3%
COc1ccc(NC(=O)c2cc(-c3ccco3)nc3c2cnn3C(C)C)cc1OC(F)F,-7%,0%
CCC1CCCCN1S(=O)(=O)c1ccc(N2CCCCS2(=O)=O)cc1 (configuration not stated),32%[activator],-9%
CCN1CCN(c2ccc3cc(S(=O)(=O)N4CCOCC4)ccc3n2)CC1,12%,-5%
COC(=O)C(C#N)c1nc2ccccc2nc1NC1CC1 (configuration not stated),54%[activator],70%[activator]
Cc1ccc(C)c(Cn2c3ccccc3c3cnn(CC(=O)NC4CCCCCC4)c(=O)c32)c1,-15%,-9%
COc1cc(Cl)c(C)cc1NC(=O)c1c(C)oc2nc(C)nc(N3CCCC3)c12,13%,0%
CNC(=O)NC(=O)CCN1CCOC(c2ccc(Br)cc2)C1 (configuration not stated),-15%,-7%
CNC(=S)NNC(=O)c1ccc(F)cc1,0%,11%
COc1ccc(OC)c(C2CCCN2C(=O)c2ccc(-n3cccn3)cc2)c1 (configuration not stated),38%[activator],31%
Clc1ccc(N2CCN(Cc3nnc(-c4ccc5c(c4)OCO5)o3)CC2)cc1,-6%,6%
Cc1sc2nc(SCc3c(F)cccc3Cl)n(CCCN3CCOCC3)c(=O)c2c1C,9%,21%

# The closing five compounds of the section above are carried over, then new ones follow:
mol,StopGo RLuc,StopGo FLuc
CNC(=O)NC(=O)CCN1CCOC(c2ccc(Br)cc2)C1 (configuration not stated),-15%,-7%
CNC(=S)NNC(=O)c1ccc(F)cc1,0%,11%
COc1ccc(OC)c(C2CCCN2C(=O)c2ccc(-n3cccn3)cc2)c1 (configuration not stated),38%[activator],31%
Clc1ccc(N2CCN(Cc3nnc(-c4ccc5c(c4)OCO5)o3)CC2)cc1,-6%,6%
Cc1sc2nc(SCc3c(F)cccc3Cl)n(CCCN3CCOCC3)c(=O)c2c1C,9%,21%
CC(C)CNC(=O)c1cc(-c2ccccc2F)no1,11%,242%[activator]
C=CCOC(=O)c1[nH]c(C)c(C(=O)OCC)c1C,18%,186%[activator]
Cn1c(=O)c(=O)n(C)c2cc(N3CCCCC3)c(NS(=O)(=O)c3ccc(C(C)(C)C)cc3)cc21,-10%,-14%
Cc1sc2nc(CN3CCOCC3)nc(Sc3nnnn3C3CC3)c2c1C,?,-18%
CCOC(=O)NC(=O)COC(=O)[C@H](C)NC(=O)c1ccccc1,5%,3%
O=C(O)CC(c1ccccc1)c1cc(Cl)ccc1O (configuration not stated),10%,6%
CCOc1ccc(C(=O)c2cn(CC(=O)Nc3ccc(F)c(F)c3)c3cc4c(cc3c2=O)OCCO4)cc1,0%,32%[activator]
O=C(Cn1ccc2cc(S(=O)(=O)N3CCCCC3)ccc21)NCc1cccc(Cl)c1,213%[activator],11%
CC(C)C(=O)N1CCN(c2nc3c([nH]2)c(=O)n(C)c(=O)n3C)CC1,-7%,1%
CCCCn1c(SCC(=O)Nc2ccc(OC)cc2)nc2c(oc3ccccc32)c1=O,-10%,-13%
COC(=O)C1=C(C)N(c2ccc(C)c(C)c2)C(=S)NC1c1ccsc1 (configuration not stated),68%[activator],21%
Cc1cccc(C)c1NC(=O)c1cc2ccccc2oc1=O,-9%,36%[activator]
COCCNC(=O)Cn1cc(S(=O)(=O)Cc2ccc(F)cc2)c2ccccc21,-1%,-6%
CCOc1ccc(C(=O)Nc2ccc3oc(-c4ccc5ccccc5c4)nc3c2)cc1,14%,66%[activator]
Cc1ccc(CNC(=O)CC2C=CCC2)cn1 (configuration not stated),-8%,3%
CCCCn1nc(C(=O)N(C)C2CCS(=O)(=O)C2)c2ccccc2c1=O (configuration not stated),6%,4%
CNCC(O)c1ccc(O)cc1 (configuration not stated),13%,-2%[11.5 µM]
CCOc1ccc(Nc2c(S(=O)(=O)c3ccccc3)cnc3ccc(F)cc23)cc1,-4%,-1%
CNc1snc(C)c1C(=O)NCCc1ccc(OC)cc1,13%,0%
O=C(NCc1cccnc1)c1ccc2nccnc2c1,-12%,0%
Cc1nc2cc(NS(=O)(=O)c3cc(F)cc(F)c3)ccc2o1,66%[activator],12%
O=C(Cn1cnc2c(oc3ccccc32)c1=O)Nc1ccccc1C(F)(F)F,1%,3%
CCOc1ccc2nc(N3CCN(C(=O)C(C)C)CC3)sc2c1,-10%,23%
COc1c(C)cnc(CN2CCN(C(C(=O)O)c3c[nH]c4ccccc34)CC2)c1C (configuration not stated),-4%,1%
CCn1cc(C(=O)NCc2ccccc2Cl)c(=O)c2cc(S(=O)(=O)N3CCOCC3)ccc21,-4%,7%
Cn1c(C(=O)N2CCN(C(=O)C(C)(C)C)CC2)cc2ccccc21,3%,16%
O=C(NCC(c1cccs1)S(=O)(=O)c1cccs1)c1ccc(C(F)(F)F)cc1 (configuration not stated),?,?
COc1cccc(OC)c1C(=O)Oc1ccc2c(c1)O/C(=C\c1cccs1)C2=O,9%,24%
COc1ccc2oc(=O)c(C(=O)NCc3ccccc3)cc2c1,-12%,1%
CC1C(c2ccc(F)cc2)=[N+]([O-])C(C)(c2cccc([N+](=O)[O-])c2)N1O (configuration not stated),7%,23%
Cc1n[nH]c(=O)c2c(NC(=O)CSc3nnc(C4CC4)n3-c3ccccc3)oc(C)c12,47%[activator],0%
CCCn1nc(C(=O)OCC#N)c2ccccc2c1=O,-14%,-9%
CCN(C(=O)c1sc2nc3n(c(=O)c2c1C)CCCCC3)c1ccccc1,8%,25%
Cc1ccc(/C=[N+](\[O-])C2N(C)C(=S)SC2(C)C)cc1 (configuration not stated),-3%,-5%
Cc1cc2nc(CSc3nc4ccc(NC(=O)C(C)(C)C)cc4s3)cc(=O)n2o1,-3%,9%
Fc1ccc(-c2noc3ncnc(NC4CCCCC4)c23)cc1,-10%,-5%

# Looked up one by one from the list above:
mol,StopGo RLuc,StopGo FLuc
O=C(NCC(c1cccs1)S(=O)(=O)c1cccs1)c1ccc(C(F)(F)F)cc1 (configuration not stated),?,?
CCN(C(=O)c1sc2nc3n(c(=O)c2c1C)CCCCC3)c1ccccc1,8%,25%
Cc1cc2nc(CSc3nc4ccc(NC(=O)C(C)(C)C)cc4s3)cc(=O)n2o1,-3%,9%
Fc1ccc(-c2noc3ncnc(NC4CCCCC4)c23)cc1,-10%,-5%

# Other records follow.
mol,StopGo RLuc,StopGo FLuc
COc1cccc(C(=O)Nc2cccc(C(=O)OCc3cc(=O)n4nc(C(C)C)sc4n3)c2)c1,-4%,22%
COc1ccc(NC(=O)N2c3ccccc3Sc3ccccc32)cc1OC,5%,-4%
COc1ccc(Cl)cc1NC(=O)CSc1nc(=O)n(Cc2ccco2)c2c1CCC2,38%[activator],-19%
COc1cn(CC(=O)Nc2ccccc2)c(CN2CCCCC2)cc1=O,4%,-22%
Cc1ccc(-n2nc3c(N4CCCC(C(=O)NCc5ccccc5C)C4)nnc(C)c3c2C)cc1 (configuration not stated),69%[activator],12%
C/C(=N\NC(=O)C1CC1)c1ccncc1,3%,11%
CCOc1ccccc1C(=O)N[C@H](C(=O)O)C(C)C,3%,11%
O=C(Cn1cc(SCc2cccc(Cl)c2)c2ccccc21)N1CCOCC1,60%[activator],103%[activator]
CCC1CN(C(=O)CCc2nc(Cc3ccccc3)no2)CCO1 (configuration not stated),-2%,-3%
O=C(Nc1ccc(S(=O)(=O)N2CCOCC2)cc1)c1nc(-c2ccccc2)n(-c2ccccc2)n1,4%,3%
Cc1cc(C)c2c(-n3cccc3)nn(CCCC(=O)NCc3ccc(Cl)cc3)c2n1,6%,-2%
COc1cccc(Cn2c(=O)n(CC3CCC(C(=O)N4CCCC4)CC3)c(=O)c3sccc32)c1 (configuration not stated),22%,4%
Cc1nc2cccnc2n1C1CCN(S(C)(=O)=O)CC1,-16%,-12%
CCN1CCc2nc(N)oc2CC1,-11%,-14%
COc1ccc2c(c1)CCCC2=O,-8%,-14%[11.5 µM]
O=C(O)CCCN1CCCCC1,0%,-5%
O=C(O)CCC(=O)c1ccc(Br)cc1,-6%,16%
CCc1sc(C(=O)OCC(=O)c2ccc3c(c2)OCCO3)cc1C,0%,0%
O=C(c1ccccc1Br)N(Cc1ccc2cc[nH]c2c1)C1CC1,-16%,?
O=c1[nH]c(=O)n(CCc2ccccc2)c2nccc(-c3ccc(Cl)cc3)c12,-4%,-1%
O=c1c(=O)n(-c2ccccc2)ccn1Cc1cccc(C(F)(F)F)c1,17%,5%
CCOc1ccc(C(=O)NCCc2sc(-c3ccc(C)cc3)nc2C)cc1,1%,74%[activator]
CCCCNC(=O)CN1C(=O)c2cccnc2Sc2ccccc21,12%,0%
CNC(=O)COc1ccc(NC(=O)c2ccc(-c3nn(C)c(=O)c4ccccc34)cc2)cc1,1%,-5%
Cc1ccc(NC(=O)CC2Nc3cc(C)c(C)cc3NC2=O)c(C)c1 (configuration not stated),-21%,53%[activator]
Cn1nc(C(=O)N2CCCCC2c2nc3ccccc3s2)c2ccccc2c1=O (configuration not stated),?,?
CNC(=O)c1c(NC(=O)c2cccc(C)c2)sc2c1CCC2,11%,152%[activator]
CCOc1ccc(NC(=O)NC2(C(F)(F)F)Oc3ccccc3O2)cc1,27%,73%[activator]
Cc1ccc(S(=O)(=O)N(Cc2cnn(C)c2)C(C)C)c(Cl)c1,10%,0%
Cc1ccc2nc(C)c(C(=O)N3CCCC3C3CCCC3)cc2c1 (configuration not stated),17%,-14%
CCc1ccccc1NS(=O)(=O)c1ccc2[nH]cc(C(=O)N(CC)Cc3ccccc3)c(=O)c2c1,40%[activator],-18%
CCOc1ccc(NC(=O)CSc2nc3ccsc3c(=O)n2CCC(C)C)cc1,-12%,-24%
Nc1ccc([As](=O)(O)O)cc1,24%,12%
Cc1cccc(C(=O)NCc2nc3ccccc3n2Cc2ccccc2Cl)c1,55%[activator],-21%
CCOC(=O)C1=C(N)Oc2cc(O)ccc2C1c1ccccc1 (configuration not stated),8%,10%
Cc1ccc(-c2nc3cc(NC(=O)CC(C)C)ccc3o2)cc1Cl,-8%,79%[activator]
Cc1ccc2[nH]cc(C(C(=O)O)N3CCCN(c4ccc(C(F)(F)F)cn4)CC3)c2c1 (configuration not stated),-25%,-17%
COC(=O)C(C)Oc1ccc2cc(-c3ccc(OC)c(OC)c3)c(=O)oc2c1 (configuration not stated),-2%,11%
Cc1ccc(C(=O)NCC(F)(F)F)cc1N,4%,6%

# High-throughput results (PubChem)

# Not all compounds are listed; count on the stated rates, not on these rows.
